HSV augment: enhancers of HSV replication in host cells, fold increase, host cell viability; HSV replication augmentation in cells; maximum fold increase; 220,000 tested, 0.005% active; AID 1956, 2009;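 active = peak rise of 1.5-fold or more in the series; tested in PC3 cells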;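 note: first round at 10 µM; read as green reporter fluorescence; hits show the peak of a series up to 25 µM; 1 = signal of infected wells without compound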
RGS16-Gao: modulators of RGS16 binding to Galphao, primary screen, biochemical, human proteins, multiplexed bead flow cytometry; bead-based flow cytometry RGS16-Galphao binding, fluorescence; actives lie on both sides; 220,000 tested, 0.38% active; binding response (% of control), % at 10 µM; Regulator of G-protein signaling 16 (Homo sapiens) + Guanine nucleotide-binding protein …;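 active = below 25% or above 175%, edge rows of some plates excepted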;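 note: Galphao activated by GDP with aluminum fluoride before binding; 100% = wells without compound and 0% = beads without RGS; some results beyond the cut were filed as inactive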
GALR2 agonist: GALR2 receptor agonists, primary screen, cell-based. Galanin receptor type 2 (Homo sapiens), O43603. GALR2-expressing cells, agonist activation read-out. activation, %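 (tested at 5 µM)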. 140,000 tested, 0.48% active;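 active = above mean plus 3 SD of all compounds, about 5% in these data, not always enough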;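 note: 0% = vehicle buffer wells and 100% = reference agonist at full effect; tested in CHO reporter cells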
INS promoter inh: inhibitors of insulin promoter-driven GFP, primary screen, imaging, TRM-6 cells (human fetal islet line), eGFP reporter, cell count. reporter expression induced with tamoxifen. AID 1273, 2008. 130,000 tested, 0.9% active. inhibition, % at 2 µM;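 active = inhibition above the mean plus 3 SD, with well images judged a real hit on visual review, cut at about 60% in these data, passing the limit was not always enough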
PKD1 kinase inh: inhibitors of human PKD1 kinase, biochemical, fluorescence polarization | inhibition, %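 (about 10 µM by stock and volumes)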 | Serine/threonine-protein kinase D1 (Homo sapiens), Q15139 | 200,000 tested, 0.056% active | PKD1 kinase fluorescence polarization assay;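 active = inhibition of 50% or more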;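 note: controls were vehicle for no effect and a reference inhibitor for full effect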
Target sequence (Q15139 whole entry, looked up): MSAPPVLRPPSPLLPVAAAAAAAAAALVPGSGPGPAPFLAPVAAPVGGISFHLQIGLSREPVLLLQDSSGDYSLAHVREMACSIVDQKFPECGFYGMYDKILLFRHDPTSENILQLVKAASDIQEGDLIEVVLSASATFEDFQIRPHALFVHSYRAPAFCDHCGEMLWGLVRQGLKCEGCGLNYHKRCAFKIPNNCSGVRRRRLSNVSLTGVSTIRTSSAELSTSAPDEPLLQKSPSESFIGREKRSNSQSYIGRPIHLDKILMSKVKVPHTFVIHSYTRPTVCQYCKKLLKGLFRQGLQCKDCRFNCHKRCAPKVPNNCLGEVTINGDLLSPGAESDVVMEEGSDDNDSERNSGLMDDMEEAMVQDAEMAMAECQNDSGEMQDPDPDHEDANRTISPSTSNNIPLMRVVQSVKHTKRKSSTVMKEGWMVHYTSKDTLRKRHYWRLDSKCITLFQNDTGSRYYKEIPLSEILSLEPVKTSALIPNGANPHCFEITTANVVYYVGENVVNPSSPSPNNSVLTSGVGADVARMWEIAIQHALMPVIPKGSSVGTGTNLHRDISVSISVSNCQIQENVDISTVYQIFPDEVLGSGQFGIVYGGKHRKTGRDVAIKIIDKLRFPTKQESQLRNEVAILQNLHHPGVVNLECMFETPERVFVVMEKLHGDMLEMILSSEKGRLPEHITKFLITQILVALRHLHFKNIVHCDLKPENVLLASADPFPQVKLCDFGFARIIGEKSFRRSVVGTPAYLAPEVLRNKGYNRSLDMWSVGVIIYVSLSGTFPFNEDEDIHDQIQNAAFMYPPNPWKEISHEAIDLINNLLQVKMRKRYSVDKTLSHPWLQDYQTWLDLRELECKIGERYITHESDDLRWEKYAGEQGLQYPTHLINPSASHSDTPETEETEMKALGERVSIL
INS promoter inh cell count: second read-out of INS promoter inh, no call of its own (marks repeat the call); normalized cell count, %; measured here: cell count, toxicity; reference of the scale not given here;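 cells exposed to compound for 48 h; stained nuclei by imaging scaled within each plate; lower means fewer cells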
HSV augment primary fold: also measured in HSV augment; calls as there; fold increase; compound at 10 µM; measured here: primary screen fold increase 10 uM; tested in PC3 cells;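 GFP signal in the first replicate; 1 = infected wells without compound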
An asterisk follows results filed as active; i = inactive; . = not tested or not shown.

SMILES	HSV augment	HSV augment primary fold	RGS16-Gao	GALR2 agonist	INS promoter inh	INS promoter inh cell count	PKD1 kinase inh
COc1cc(OC)c(NC(=O)CCNS(=O)(=O)c2cc(Br)cnc2N)cc1Cl	i	0.92	103	-0.9	33	78	5
O=C(NCCOc1ccccc1)C(c1ccccc1)c1ccccc1	.	.	104	-1.6	-12	76	0
O=C1N=C(N2CCN(c3ccccc3)CC2)S/C1=C/c1cccs1	i	0.96	99	-0.7	.	.	-5
CCOc1ccc(CN=C(N)N=C(N)N)cc1Cl	i	0.99	97	-4.7	.	.	-1
OCCOCCOc1cccc2[nH]ccc12	i	1.3	101	.	-44	99	-5
Cn1c(=S)[nH]c(=O)c2ncc(=O)[nH]c21	i	1	99	.	.	.	0
O=C(CSc1ncccn1)NN=C1CCCCCC1	i	1	108	-2.3	67*	172*	-12
CC(Oc1cc(Cl)ccc1Cl)C(=O)N/N=C\c1ccnn1C (centres undefined)	i	0.98	117	-1.4	-7	53	-13
CCOC(=O)C1=C(c2ccccc2)NC(SC)=C(C#N)C1c1ccco1 (centres undefined)	i	1.2	105	0.4	-29	91	-1
CC(C)N1CC(O)=C(c2ccccc2)C1=N	i	0.89	101	-1.2	0	95	2
O=C(Cn1nc(-c2ccc(Cl)cc2)ccc1=O)NCCCN1CCN(Cc2ccccc2)CC1	.	.	196	-0.3	.	.	3
O=C(Nc1ccc2c(c1)OCO2)c1ccc(=O)[nH]n1	i	0.9	97	.	.	.	.
CC(=O)OCCn1c(=O)c2cc3c(=O)n(CCOC(C)=O)c(=O)c3cc2c1=O	i	0.81	99	-2.5	-11	119	3
O=C(Nc1nncs1)c1ccccc1NS(=O)(=O)c1cccs1	i	1.1	103	-1.1	10	84	1
Cc1ccc(C(=O)O)cc1NC(=O)CSc1ncnc2sc3c(c12)CCC3	i	1.2	74	.	.	.	.
CCOc1ccccc1Nc1nnc(SCC(=O)Nc2cccc(S(=O)(=O)NC3=NCCCCC3)c2)s1	i	0.79	56	-0.9	14	109	6
O=C(NCc1ccccc1)c1c[nH]c2ccc(S(=O)(=O)Nc3ccc4c(c3)OCCO4)cc2c1=O	i	0.93	90	-2.1	-29	129	5
COc1ccc(-c2cc(C(=O)N3CCN(Cc4ccccc4)CC3)no2)cc1OC	i	0.79	105	-1.5	.	.	6
CCOC(=O)c1c(-c2ccc(F)cc2)csc1NC(=O)C1CC=CCC1C(=O)O (centres undefined)	i	1.1	98	.	42	92	4
Cc1nc2ccccc2n1S(=O)(=O)c1ccc(Br)cc1	i	1.2	98	-1.5	32	71	0

Sorted by count of non-hydrogen atoms (highest first): 4 of the compounds above
SMILES	HSV augment	HSV augment primary fold	RGS16-Gao	GALR2 agonist	INS promoter inh	INS promoter inh cell count	PKD1 kinase inh
COc1cc(OC)c(NC(=O)CCNS(=O)(=O)c2cc(Br)cnc2N)cc1Cl	i	0.92	103	-0.9	33	78	5
Cc1ccc(C(=O)O)cc1NC(=O)CSc1ncnc2sc3c(c12)CCC3	i	1.2	74	.	.	.	.
O=C1N=C(N2CCN(c3ccccc3)CC2)S/C1=C/c1cccs1	i	0.96	99	-0.7	.	.	-5
O=C(CSc1ncccn1)NN=C1CCCCCC1	i	1	108	-2.3	67*	172*	-12

(listing goes on)
SMILES	HSV augment	HSV augment primary fold	RGS16-Gao	GALR2 agonist	INS promoter inh	INS promoter inh cell count	PKD1 kinase inh
COc1ccccc1/C=C1\SC(=S)N(Nc2nc(C)cc(C)n2)C1=O	i	0.96	83	-2.8	.	.	5
CCOC(=O)c1c[nH]n(-c2ccccc2)c1=O	i	1	104	.	.	.	-4
O=C1CCC(=O)N1CNc1ccccn1	i	0.98	97	-1.7	-10	67	-5
COc1ccccc1N1CCN(CC(=O)N(CC(C)C)c2c(N)n(CC(C)C)c(=O)[nH]c2=O)CC1	i	0.96	96	.	.	.	-10
CC(C)=CCN1CCN(Cc2ccc(C#CC(C)(C)O)s2)CC1CCO (centres undefined)	i	1	95	.	40	72	1
Cn1cc(CN2CCC(CO)(CCCc3ccccc3)CC2)c(-c2ccccc2)n1	i	0.88	99	.	.	.	.
CC1(C)NC(=O)N(CCOCCOc2c(Cl)cc(Cl)cc2Cl)C1=O	i	1	94	-2.2	-62	109	-1
CCOC(=O)C1CCN(C(c2cc(OC)c(OC)c(OC)c2)c2sc3nc(C)nn3c2O)CC1 (centres undefined)	i	0.8	104	-1.3	20	16	0
CCN(CC)CCN1C(=O)c2oc3ccccc3c(=O)c2C1c1ccc(F)cc1 (centres undefined)	i	0.97	101	-0.9	14	87	-3
C=CCN1C(=O)/C(=C\c2ccco2)C(C(=O)OC)=C1C	i	1.1	90	-0.6	-56	59	10
Cc1cccc(OCC(=O)NNC(=O)c2cccs2)c1	i	0.89	100	.	.	.	-6
CCOc1ccc(NC(=O)Nc2cc(OCC(F)(F)F)cc(OCC(F)(F)F)c2)cc1	i	0.87	102	-1.8	.	.	-2
COc1cc(/C=C/C(=O)OCC(=O)Nc2ccc(C)cc2[N+](=O)[O-])ccc1O	i	0.89	97	.	.	.	2
O=C(c1cccs1)N1CCN(Cc2nc3ccccc3c(=O)[nH]2)CC1	i	1	105	-2.0	-26	94	-9
CCOC(=O)CC(NC(=O)c1cccc2c1C(=O)N(Cc1cccnc1)C2)c1ccc(OC(C)C)cc1 (centres undefined)	i	0.87	101	.	.	.	4
O=C(Cc1ccc(Cl)cc1)N/N=C/c1ccccc1	i	1.1	106	.	.	.	4
O=C1/C(=C\c2ccco2)CCC/C1=C\c1ccco1	i	1.1	100	-0.9	-37	100	-1
FC(F)(F)c1cccc(Cc2noc(CN3CCCC3)n2)c1	i	1	102	.	.	.	-1
C/C(=N\NC(=O)COc1ccc(C(C)(C)C)cc1)c1cc2ccccc2o1	i	0.71	106	0.2	-24	96	-11
O=C1c2ccccc2C(=O)N1CC(O)COCc1ccccc1 (centres undefined)	i	1.2	104	-1.6	8	171	-3

Whole records from above. Order of values: HSV augment, HSV augment primary fold, RGS16-Gao, GALR2 agonist, INS promoter inh, INS promoter inh cell count, PKD1 kinase inh
Listed for `O=C1/C(=C\c2ccco2)CCC/C1=C\c1ccco1` → i, 1.1, 100, -0.9, -37, 100, -1
Listed for `Cc1cccc(OCC(=O)NNC(=O)c2cccs2)c1` → i, 0.89, 100, ., ., ., -6

Reprinted at random: 4 entries already listed, in no set order.
SMILES	HSV augment	HSV augment primary fold	RGS16-Gao	GALR2 agonist	INS promoter inh	INS promoter inh cell count	PKD1 kinase inh
COc1cc(/C=C/C(=O)OCC(=O)Nc2ccc(C)cc2[N+](=O)[O-])ccc1O	i	0.89	97	.	.	.	2
CCOc1ccc(NC(=O)Nc2cc(OCC(F)(F)F)cc(OCC(F)(F)F)c2)cc1	i	0.87	102	-1.8	.	.	-2
O=C1/C(=C\c2ccco2)CCC/C1=C\c1ccco1	i	1.1	100	-0.9	-37	100	-1
O=C(Cc1ccc(Cl)cc1)N/N=C/c1ccccc1	i	1.1	106	.	.	.	4

Further results:
SMILES	HSV augment	HSV augment primary fold	RGS16-Gao	GALR2 agonist	INS promoter inh	INS promoter inh cell count	PKD1 kinase inh
O=C(Nc1ccccc1)c1ccc(Br)c(S(=O)(=O)Nc2cccnc2)c1	i	0.96	105	0.4	29	111	2
CC1(C)Cc2cccc(OCC(=O)Nc3nccs3)c2O1	i	0.88	100	-2.0	.	.	1
CCOC(=O)COc1ccc2c(C#N)c3ccccn3c2c1	i	1.1	97	.	.	.	-1
COc1cccc(-c2ccc(C#N)c(SCC(=O)NCc3ccco3)n2)c1	i	0.94	107	.	-33	125	0
CC(C)c1nc(N2CCN(C(=O)c3ccccc3)CC2)c(C#N)c2c1COC(C)(C)C2	i	0.91	102	0.9	3	94	3
NS(=O)(=O)c1ccc(NC(=S)Nc2ccn(Cc3cccc4ccccc34)n2)cc1	i	0.95	102	.	.	.	-5
O=[N+]([O-])C1=CC=C2C(=NC3(CCCCC3)N2O)C1=NC1CCCCC1	i	1.1	99	-1.3	.	.	13
O=C(Cc1ccccc1)O/N=C1\CCCc2ccccc21	i	1.1	98	.	18	108	-7
O=C(NC1CC1)C1=C[C@H](c2ccc(C(F)(F)F)cc2)C[C@H](OCc2ccc(CO)cc2)O1	i	1.1	105	.	.	.	1
COc1ccc(S(=O)(=O)N2CCOCC2)cc1NC(=O)COC(=O)C1=COCCO1	i	0.83	97	.	.	.	.
OCCNCC1(O)C2CC3CC(C2)CC1C3 (centres undefined)	i	0.98	109	-0.7	.	.	-6
Cc1cc(C(=O)NNC(=O)CCN2CCN(c3ccccc3)CC2)c2ccccc2n1	i	0.87	111	.	29	113	-9
Cc1ccc(Cl)cc1NC(=O)c1ocnc1C	i	0.86	106	0.0	7	99	-4
Cc1ccc2cc(CN(Cc3nnnn3Cc3ccco3)CC3CCCO3)c(=O)[nH]c2c1C (centres undefined)	i	1.2	88	-0.7	.	.	-4
CCCSc1cc(N2CCN(C)CC2)nc(-c2ccc(OC)cc2)n1	i	0.8	104	-0.1	32	53	7
CSc1sc(-c2ccnc(SCCS(C)(=O)=O)n2)c(-c2ccccc2)c1C#N	i	0.87	97	.	.	.	.
COc1ccc(NC(=O)COC(=O)Cc2ccc(-c3ccccc3)cc2)c(OC)c1	i	1	101	-0.1	.	.	1
CCOc1ccc(NC(=O)C2CCN(C(=O)NCc3ccccc3)CC2)cc1	i	0.97	102	-0.9	23	130	-7
CC(C(=O)N1CCC(C(N)=O)CC1)N(c1ccc(Oc2ccccc2)cc1)S(C)(=O)=O (centres undefined)	i	1.1	91	0.6	.	.	3
CCN(CC)S(=O)(=O)c1cccc(C(=O)Nc2ccccc2C(=O)N2CCOCC2)c1	i	0.91	99	-0.9	-43	98	6
Cc1nnc2sc(-c3ccc(NC(=O)c4ccc(-c5ccc(Br)cc5)o4)cc3)nn12	.	.	.	-1.8	27	71	-9
O=C(CSc1nc(-c2ccccc2)cc(C(F)(F)F)n1)NCc1cccs1	i	0.9	99	-0.5	3	85	-9
COc1ccc(CC(=O)NCc2ccccc2Cl)cc1S(=O)(=O)N1CCOCC1	i	0.8	100	0.2	-22	131	2
Nc1nc(Cl)cc(N2CCC(c3cc(-c4ccc(Cl)cc4)n[nH]3)CC2)n1	i	0.63	91	-0.6	-7	79	-3
NC1=NCc2ccccc21	i	1	87	-2.5	.	.	-2
Cc1sc(NC(=S)Nc2ccc(F)cc2)c(C(N)=O)c1C	i	1.1	144	.	27	117	5
CNS(=O)(=O)c1cc(OC)c(OC)cc1CC(=O)OC	i	1.1	100	.	8	102	-4
CCc1nc(NCCC(C)C)c(C#N)c2c1CCCC2	i	0.94	101	-1.2	26	120	1
COC(=O)[C@]12C(=O)C(C)=C(O)[C@@]1(C)C(C)=CC1[C@@]34CC[C@@H](OC(C)=O)C(C)(C)C3C(C[C@]12C)OC4=O (some centres undefined)	i	0.81	102	.	.	.	.
CC1CCCCC1NCC(=O)NCc1ccc(F)cc1 (centres undefined)	i	0.93	102	.	10	99	-1
O=c1cnnc(Nc2ccc(Cl)c(C(F)(F)F)c2)[nH]1	i	1	101	.	.	.	-1
Cc1ccc(S(=O)(=O)N(C#N)c2nc(C)cc(C)n2)cc1	i	0.9	102	-2.1	.	.	4
